# Cruzain inh noDet: cruzain (T. cruzi) inhibition without detergent; AID 1476; 200,000 compounds, 2.3% hits; purified cruzain, Z-FR-AMC fluorescence, no detergent; P25779; Potency, µM, for inactives: max response, negative = inhibition, hits mostly inhibitors;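 note: plate controls were enzyme without inhibitor for no effect and buffer without enzyme for full effect; nearly all actives have a fitted effect of over 40% in size; top concentration of the series not given in the record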
# Target sequence (P25779 123-467 limits assumed): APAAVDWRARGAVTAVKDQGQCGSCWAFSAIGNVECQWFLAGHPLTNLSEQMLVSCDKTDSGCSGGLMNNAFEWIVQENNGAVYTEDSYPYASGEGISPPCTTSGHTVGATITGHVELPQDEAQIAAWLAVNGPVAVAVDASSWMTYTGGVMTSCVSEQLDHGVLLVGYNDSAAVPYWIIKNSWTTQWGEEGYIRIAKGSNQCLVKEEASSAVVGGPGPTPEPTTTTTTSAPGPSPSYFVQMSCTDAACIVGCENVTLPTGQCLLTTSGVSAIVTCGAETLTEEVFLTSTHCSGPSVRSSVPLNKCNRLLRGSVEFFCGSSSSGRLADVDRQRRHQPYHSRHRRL
#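 Purified cruzain at 1.5 nM, pre-incubated 15 min with compound at room temperature in 100 mM sodium acetate pH 5.5, 5 mM DTT, 0.00005% Triton X-100. Reaction started with 2 uM Z-FR-AMC; AMC fluorescence increase over 60 s gives rate.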
# RE007 growth inh: less growth of the S. pombe RE007 Vpr strain; S. pombe RE007 Vpr strain, BacTiter-Glo ATP luminescence, 24 h; control for the full effect not named in the record; Potency, µM (highest dose often 92.2 µM), without a hit: at the top dose activity change, negative = less growth; 360,000 compounds, 0.21% hits; AID 651644; active = well fitted falling curve with a large enough effect; inconclusive = small, poorly fitted or top-dose-only effect; inactive = no such curve, though single readings can be large or run the other way;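 note: % is set by controls: 0 for no effect and ±100 for the full control effect; nearly all actives have a fitted effect of over 50% in size; the assay follows cell death caused by Vpr and the record does not say whether a fall means rescue or toxicity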
#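 Fission yeast strain RE007, carrying one chromosomally integrated HIV-1 vpr copy, was seeded at OD 0.01 in PMG+AL medium with 23 nL pinned compound. After 24 h at 30 °C and 99% humidity, viability was read by BacTiter-Glo luminescence.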
# MARV entry inh: inhibitors of Marburg virus binding or cell entry | Potency, µM (series often up to 37.8 µM), inactives show top-dose activity change, negative = inhibition, most hits filed as inhibitors | 300,000 compounds, 1.8% hits | Marburg virus pseudotyped entry inhibition, cell reporter; control for the full effect not named in the record; about a third of the inactives were read at about 46 µM; active = well fitted inhibition curve with a large enough effect; inconclusive = small, poorly fitted or top-dose-only effect, or effect the other way; inactive = flat fitted curve, though single readings scatter; tested in HEK293 cells; about a fifth of its hits are not listed in these tables; note: % is set by controls: 0 for no effect and ±100 for the full control effect; luciferase read-out
# NS1 inh: inhibitors of influenza NS1 protein function; S. cerevisiae slowed by influenza A NS1, growth recovery by OD600; 270,000 compounds, 0.4% hits; Potency, µM (series often up to 46.1 µM), for inactives: top-dose activity, positive = more growth; active means well fitted rising curve with a large enough effect; inconclusive means small, poorly fitted or top-dose-only effect; inactive means no such curve, though single readings can be large or run the other way; note: nearly all actives have a fitted effect of over 50% in size
#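 S. cerevisiae expressing influenza A NS1, grown in glucose, washed, then diluted 1:100 into pH 6.0 -URA galactose medium with 23 nl compound. Growth recovery read as OD600; NS1-free strain serves as control.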
# LASV entry inh: inhibitors of Lassa virus binding or cell entry; Lassa virus pseudotype entry inhibition, cell reporter; control for the full effect not named in the record; Potency, µM (highest dose often 37.9 µM), for inactives: at the top dose activity change, negative = inhibition, actives largely listed as inhibitors; 300,000 compounds, 1.2% hits; active means well fitted inhibition curve with a large enough effect; inconclusive means small, poorly fitted or top-dose-only effect, or effect the other way; inactive means flat fitted curve, though single readings scatter; tested in HEK293 cells; note: % is set by controls: 0 for no effect and ±100 for the full control effect; nearly all actives have a fitted effect of over 50% in size; luciferase read-out
# SARS PLpro yeast: SARS-CoV PLP inhibition in yeast | S. cerevisiae expressing SARS-CoV PLpro, growth rescue; control for the full effect not named in the record | 330,000 compounds, 0.19% hits | Potency, µM (top dose mostly 32.9 µM), for inactives: at the top dose activity, positive = growth rescue; active means well fitted rising curve with a large enough effect; inconclusive means small, poorly fitted or top-dose-only effect; inactive means no such curve, though single readings can be large or run the other way; note: 0% is about no effect; nearly all actives have a fitted effect of over 55% in size; growth read by luminescence after 48 h
# 2A StopGo: FMDV 2A StopGo reporter, luciferase signal | human cells with a luciferase reporter of 2A StopGo recoding; control for the full effect not named in the record | 410,000 compounds, 1.2% hits | AID 1159524 | Potency, µM (top dose mostly 57.9 µM), inactives show at the highest dose signal change, negative = less light; active = well fitted falling curve with a large enough effect; inconclusive = small, poorly fitted or top-dose-only effect; inactive = no such curve, though single readings can be large or run the other way; tested in HEK293T cells; note: % is set by controls: 0 for no effect and ±100 for the full control effect; nearly all actives have a fitted effect of over 45% in size; luciferase light after 4 h
# Cruzain inh Det: inhibitors of Trypanosoma cruzi cruzain with detergent; P25779; purified cruzain, Z-FR-AMC fluorescence, 0.01% Triton; Potency, µM, without a hit: max response, negative = inhibition, usual class: inhibitors; 200,000 compounds, 0.43% hits; AID 1478;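 note: plate controls were neutral wells for no effect and buffer without enzyme for full effect; nearly all actives have a fitted effect of over 40% in size; top concentration of the series not given in the record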
#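 Detergent-containing run (0.01% Triton X-100) in acetate buffer pH 5.5 with 5 mM DTT: enzyme at 1.5 nM final, 15 min compound preincubation at room temperature, then 2 uM Z-FR-AMC substrate. Activity taken as 60 s fluorescence increase at 360/450 nm.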
# Numbers without * were called inactive; u = inconclusive; x = not tested or not shown; & = joins results of further samples; [ ] = dose if it differs, or a comment. Unless noted, calls come from the whole dose curve; as a rule, active = well fitted curve in the direction sought with a large enough effect; inconclusive = small, poorly fitted or top-dose-only effect, or another doubt; inactive = no such curve, though single readings can be large; an effect the other way counts as inactive or inconclusive. Potency is the fitted concentration of half-maximal effect. This is a random part of the collection; any-hit rate near 4.8%.
# Sequence of screens: Cruzain inh noDet | RE007 growth inh | MARV entry inh | NS1 inh | LASV entry inh | SARS PLpro yeast | 2A StopGo | Cruzain inh Det
COC(=O)/C(=C\c1c[nH]c2ccccc12)NC(C)=O
    -3% | 6% | u | 19% | 1% | -20% | 10% | -6.7%
CC(=O)NC(CCS(C)(=O)=O)C(=O)Nc1c(F)cccc1F (stereo not given)
    1% | 0% | 17% | 2% | 6% | 4% | u | 3.3%
CCCc1cc(NCCCO)n2c(nc3ccccc32)c1C#N
    x | 2% | -19%[46.1 µM] | 0% | u | 0% | -13% | x
COc1ccc2cc3cc(C(=O)NCc4ccc5c(c4)OCO5)oc3nc2c1
    -17% | 2% | u | 1% | 0.82µM* | -3% | 2% | -9.2%
CCCS(=O)(=O)N1CCC(C(=O)NCCOC)CC1
    -3% | x | x | x | 18%[46.1 µM] | x | 0% | 1.1%
O=C1NCCN1CCNS(=O)(=O)c1ccccc1[N+](=O)[O-]
    x | -3% | 6%[46.1 µM] | -7% | 0% | 1% | -21% | x
O=C(Nc1ccccc1Cl)ON=C1c2ccccc2-c2ccccc21
    -1% | u | u | -55% | 26% | -12% | 35%[activator] | -12%
CC(=O)c1ccc(S(=O)(=O)N2CCC(NC(=O)Nc3cccc(F)c3)CC2)cc1
    x | 1% | 3%[46.1 µM] | -9% | -3% | 0% | -21% | x
CC(=O)N1CCC(C(=O)Nc2cc(C)cc(C)c2)CC1
    x | -4% | -9% | 2% | 5% | -2% | -4% | x
CC(Sc1nc(NCc2ccccc2)nc(N2CCOCC2)n1)C(=O)Nc1ccccc1 (stereo not given)
    -10% | 18% | u | -11% | 1% | 9% | -15% | 2.8%
N#CC1=C(N)Oc2n[nH]c(-c3ccc(F)cc3)c2C1c1ccncc1 (stereo not given)
    -16% | -7% | 2% | 3% | 3% | -2% | 1% | -8.1%
CC1(C)C(C=C(Cl)Cl)C1C(=O)N1CCN(c2ccccc2)CC1 (stereo not given)
    -1% | 6% | 0% | -32% | -14% | -12% | u | -6.8%
C=C(C)c1cccc(C(C)(C)NC(=O)NCc2ccncc2)c1
    x | -13% | u | 1% | 20%[46.1 µM] | 0% | 1% | x
CC(C)(C)C1CCc2c(sc(NC(=O)CSc3nnc(-c4ccccc4)o3)c2C#N)C1 (stereo not given)
    u | 6% | -1% | 30% | 3% | 5% | 12% | -3.1%
C=CCOC(=O)C1=C(C)NC(SCC(=O)OCC)=C(C#N)C1c1ccc(C)cc1 (stereo not given)
    5% | 7% | 27%[46.1 µM] | -9% | u | -4% | -22% | -7.2%
COc1cc2cc(C(c3nnnn3C(C)(C)C)N3CCc4ccccc43)c(=O)[nH]c2cc1OC (stereo not given)
    u | 1% | -20% | -6% | -7% | 4% | x | -11%
COc1cc(/C=C(\C#N)C(=O)NC(C)C)cc(Cl)c1O
    x | 15% | u | -10% | -22% | -3% | -10% | x
CCC1C(c2ccccc2)NC(c2ccccc2)CC1(O)c1ccc(F)cc1 (stereo not given)
    x | -3% | x | 0% | x | 0% | -19% | x
CCCc1nnc(NC(=O)CCC(=O)N2CCN(CCOc3ccc(C)cc3)CC2)s1
    30% | 12% | u | -9% | -11% | 2% | 0% | 4.9%
O=C(/C=C/c1ccccc1)/C=C/c1ccccc1
    -24% | u | 9.2µM* | -37% | u | -33% | u | -9.5%
CCC(=NCC1CCCO1)c1c(O)n(-c2ccccc2)c(=O)[nH]c1=O (stereo not given)
    2% | -4% | 16% | 7% | u | 12% | -6% | -2.6%
CCOc1ccccc1NC(=O)CN(Cc1ccccc1)S(C)(=O)=O
    -2% | 0% | -36% | -8% | u | 2% | x | -4.2%
Cn1c(N)c(C(=O)CSc2nnc(C3CC3)n2-c2ccccc2)c(=O)n(C)c1=O
    x | u | 0% | x | -2% | 0% | -22% | x
Cc1[nH]c2ccccc2c1/C=N/NC(=O)CNC(=O)c1cccs1
    x | 10% | u | 0% | u | 1% | 12% | x
CC1CC(C)CN(S(=O)(=O)c2ccc3c(c2)CCN3C(=O)C2CC2)C1 (stereo not given)
    x | 5% | x | 14% | x | -2% | -11% | x
CCCC(=O)NC(=S)Nc1ccc(N2CCOCC2)c(Cl)c1
    -2% | -5% | 10% | 12% | 15% | -16% | 9% | -9.1%
Cc1ccc(NC(=O)CNC(=O)c2cccs2)c(O)c1
    x | 1% | 13%[46.1 µM] | x | 9% | 2% | 3% | x
CC(C)(C)C(=O)N1CCC[C@H]1C(O)(c1ccccc1)c1ccccc1
    -15% | 14% | -19% | -44% | -13% | 2% | -17% | -2.9%
CCOc1cccc(OCCOCCOc2ccccc2C(C)=O)c1
    0% | 6% | 6% | -8% | 1% | 9% | -24% | -3.7%
C[C@@H](C(=O)NCC1CC1)[C@@H]1C[C@@]1(C)[C@@H](NC(=O)OCc1ccccc1)c1ccccc1
    -4%&-3% | -4% | -18% | -8% | u | 4% | 8% | -5.5%&-5.7%
COc1cccc(-c2nc(Oc3cc(C)cc(C)c3)c3ccccc3n2)c1O
    -9% | x | x | -1% | x | 17% | x | 0.2%
O=C(CSc1nc2ccccc2[nH]1)c1ccc2c(c1)OCO2
    2.5µM* | -15% | 5% | -11% | 2% | -13% | -13% | -0.9%
Cc1cccc(NC(=O)CSc2nnc(-c3ccco3)c(-c3ccco3)n2)c1C
    7.9µM* | 7% | -12% | u | u | -1% | -5% | 28µM*
O=C(O)CN1C(=O)CC(Cc2ccc(Cl)cc2)C1=O (stereo not given)
    8% | 15% | 28% | 3% | 7% | -5% | 18% | 3.2%
O=C(O)C1=C[C@@H](c2ccc(C(F)(F)F)cc2)C[C@@H](OCc2ccc(CO)cc2)O1
    x | 3% | x | 1% | x | 1% | 2% | x
Cc1ccc(S(=O)(=O)N(C)C)cc1NC(=O)c1ccc(OC(F)(F)F)cc1
    12% | 18% | 8% | 1% | 0% | 1% | -13% | -3.2%
CC1(C)c2cc(O)ccc2OC1N1CCOCC1 (stereo not given)
    x | -1% | x | 4% | x | -1% | -11% | x
COc1ccc(C(=O)NCCS(=O)(=O)N2CCN(Cc3ccccc3)CC2)cc1
    x | 0% | -3%[46.1 µM] | x | -18% | -1% | -21% | x
COc1ccc(Cn2ccc3nc(C)c(C(=O)Nc4ccc(C)c(F)c4)cc3c2=O)cc1
    u | x | x | x | -13%[46.1 µM] | x | -19% | -4.3%
Cn1nc(C(=O)N2CCN(S(=O)(=O)c3ccc(Cl)cc3)CC2)c2ccccc2c1=O
    x | -4% | -24% | x | u | -2% | u | x
COC(=O)CSc1nnc(-c2ccoc2C)n1-c1ccc(C)cc1
    9% | 14% | 0%[46.1 µM] | -9% | 2% | -2% | 5% | 3.6%
CC(C)(C)c1cc(NC(=O)CSc2nncs2)n(-c2ccccc2)n1
    6% | -3% | u | -6% | 5% | -21% | -27% | 1.1%
COC(=O)c1n[nH]n(-c2ccc(F)c(Cl)c2)c1=O
    x | 13% | 16% | -4% | 9% | 1% | -1% | x
O=C(COc1ccc(Br)cc1)N1CCN(c2ccc([N+](=O)[O-])c(N3CCCCC3)c2)CC1
    u | -2% | -1% | u | -1% | 7% | u | -7.0%
COc1cccc(OC)c1C(=O)Nc1c(C(=O)N2CCN(c3ccccn3)CC2)oc2ccccc12
    x | -24% | x | -57% | x | -3% | 7% | x
COC(=O)c1cn(NC(=O)C2COc3ccccc3O2)c(=O)c2ccccc12 (stereo not given)
    -3% | 14% | 20% | 9% | u | 0% | 27% | -4.8%
CN(Cc1ccon1)Cc1cn(C)nc1-c1ccc(Oc2ccccc2)cc1
    x | -10% | -17%[46.1 µM] | -5% | -23% | -2% | -26% | x
CCOc1ccccc1NC(=O)c1nc(SC(C)C)ncc1Cl
    -12% | x | -19%[46.1 µM] | x | 27%[46.1 µM] | x | u | -2.4%
CCC(CO)NS(=O)(=O)c1cc(-c2nn(C)c(=O)c3ccccc23)ccc1C (stereo not given)
    x | -12% | -1%[46.1 µM] | -3% | -29%[46.1 µM] | 0% | 18% | x
O=C(c1ccco1)N1CCC(c2nc(-c3ccc(F)cc3)no2)CC1
    5% | -14% | -7% | -91% | 2% | -1% | -10% | 4.0%
COc1ccc2nc(NC(=O)CN3C(=O)NC4(CCCCC4)C3=O)sc2c1
    x | 1% | -7% | 1% | 11% | 1% | 3% | x
COc1cc(N)c(Cl)cc1C(=O)OC(C)C(=O)Nc1cccc(S(=O)(=O)N2CCOCC2)c1 (stereo not given)
    x | -6% | 10% | x | u | 2% | -6% | x
CCC(C)(C)NC(=O)C(c1cccc(OC)c1)N(C(=O)CNC(=O)c1cccs1)c1cccnc1 (stereo not given)
    x | -8% | -28%[46.1 µM] | -5% | 0% | 2% | -11% | x
O=C1/C(=C/c2cccs2)CCC/C1=C\c1cccs1
    x | -5% | u | -12% | u | -3% | 54%[activator] | x
Nc1ccc(Cc2ccccn2)cc1
    x | 3% | x | 2% | x | 1% | -3% | x
